# Assay outcomes from PubChem BioAssay.
# HCMV UL50-53 inh – inhibitors of HCMV UL50-UL53 nuclear egress complex interaction | HTRF UL50-UL53 interaction, normalized percent inhibition | inhibition, % (no concentration beside the values) | 190,000 tested, 0.15% active | AID 1918969;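 active = both replicates at 50% or more, plus weaker picks with an unusually low signal ratio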;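 also: stock transfer was 100 nL into about 20 µL; 0% = negative control wells and 100% = wells with untagged competitor protein; inactives centre near -12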
# GIV Gai3 FP – GIV-Galpha-i interaction inhibition | AID 1224905 | P08753 | Galpha-i3/FITC-GIV peptide fluorescence polarization, 90 min; stronger effect = lower value; scaled: aluminum fluoride 0%, vehicle 100% | percent of control (FP), % (concentration not given with the values) | 210,000 tested, 0.42% active;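 active = replicate mean at 85% of control or lower, very high polarization wells dropped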;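 also: wells of about 15 µL received 100 nL stock; the first replicate is given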
# Target sequence (P08753 whole entry, looked up): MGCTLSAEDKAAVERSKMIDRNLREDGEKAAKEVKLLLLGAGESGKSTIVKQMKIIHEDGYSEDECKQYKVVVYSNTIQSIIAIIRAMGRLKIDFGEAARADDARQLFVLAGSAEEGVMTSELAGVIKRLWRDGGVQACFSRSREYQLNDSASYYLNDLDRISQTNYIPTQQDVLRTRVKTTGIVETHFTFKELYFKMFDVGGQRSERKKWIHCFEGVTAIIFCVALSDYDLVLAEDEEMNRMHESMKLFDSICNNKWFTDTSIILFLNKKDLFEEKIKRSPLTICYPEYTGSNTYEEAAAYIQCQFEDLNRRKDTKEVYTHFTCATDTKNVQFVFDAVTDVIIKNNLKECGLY
# Sa growth 42C – blocks Staphylococcus aureus growth; S. aureus RN4220 growth, OD600, 20 h, 42 °C; stronger effect = lower value; relative growth, % (test concentration not listed); AID 720641; 170,000 tested, 0.53% active;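 active = growth at 42 °C up to 50% and 20 or more points under that at 30 °C, or under 10% at both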;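 also: 300 nL library stock went into each well; scaled to the means of positive and negative controls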
# Sa growth 42C second temp – also measured in Sa growth 42C; calls as there; relative growth, %; measured here: growth at 30 °C;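 optical density after 20 h as mean of two plates; 100% = untreated growth and lower means inhibition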
# Active calls of the source: *; / = not tested or not shown; & = joins results of further samples. Outcome played no part in choosing rows; about 0.85% have a hit in one of these screens.
# The first 3 records, to show the layout:
No.	Structure	HCMV UL50-53 inh	GIV Gai3 FP
1	COc1ccc(C2CC(C(F)(F)F)n3nc(C(=O)Nc4ccc5c(c4)OCO5)c(Cl)c3N2)cc1OC (stereo unspecified)	-14	90
2	CCCCSC1=NC(C)(C)Nc2ccccc21	-28	106
3	CCOc1ccc(CCNC(=O)CCn2c(=O)c3cccn3c3cccnc32)cc1	/	103

No.	Sa growth 42C	Sa growth 42C second temp
1	/	/
2	90	81
3	105	87

# The listing, from the first entry:
No.	Structure	HCMV UL50-53 inh	GIV Gai3 FP
1	COc1ccc(C2CC(C(F)(F)F)n3nc(C(=O)Nc4ccc5c(c4)OCO5)c(Cl)c3N2)cc1OC (stereo unspecified)	-14	90
2	CCCCSC1=NC(C)(C)Nc2ccccc21	-28	106
3	CCOc1ccc(CCNC(=O)CCn2c(=O)c3cccn3c3cccnc32)cc1	/	103
4	CN(CC(=O)Nc1cccc2ccccc12)C(=O)C1=COCCO1	-2	/
5	CCOC(=O)Cn1c(=O)oc2cc(S(=O)(=O)NCc3ccccc3)ccc21	-2	108
6	Cc1ccc(C2CC(=O)Nc3c2c(C)nn3-c2ccc3nncn3n2)c(C)c1 (stereo unspecified)	-6	106
7	CN(C)/C=C(\Sc1ncccn1)C(=O)c1ccc(Cl)cc1	-21	105
8	Cc1cccc(N2CCCC2=Nc2ccc(Br)cc2C#N)c1	-4	97
9	FC(F)Sc1nnc(-c2ccccc2)n1-c1ccccc1	9	109
10	CCc1sc(Nc2ccc(C)cc2Br)nc1-c1cc2cccc(OC)c2oc1=O	/	103
11	CC(C)(C)c1ccc(-c2noc(CSc3ccccn3)n2)cc1	3	106
12	COC(=O)c1c(NC(=O)c2ccc3c(c2)CC(c2ccccc2)OC3=O)sc(C)c1C (stereo unspecified)	-10	102
13	CCC1CN(C(=O)N2CCC(C(=O)NCCN(C)C)CC2)c2ccccc2O1 (stereo unspecified)	-23	101
14	COc1ccc(NC(=O)c2ccc3c(c2)N(C)CCS3)cc1	1	103
15	CC(C)(C)c1ccc(C(=O)NC(Cc2c[nH]c3ccccc23)C(=O)OCC(=O)c2ccccc2)cc1 (stereo unspecified)	/	101

No.	Sa growth 42C	Sa growth 42C second temp
1	/	/
2	90	81
3	105	87
4	107	103
5	116	81
6	/	/
7	99	90
8	102	79
9	92	96
10	100	88
11	121	101
12	/	/
13	95	101
14	112	98
15	105	89

# Two records drawn at random from those above:
No.	Structure	HCMV UL50-53 inh	GIV Gai3 FP
4	CN(CC(=O)Nc1cccc2ccccc12)C(=O)C1=COCCO1	-2	/
6	Cc1ccc(C2CC(=O)Nc3c2c(C)nn3-c2ccc3nncn3n2)c(C)c1 (stereo unspecified)	-6	106

No.	Sa growth 42C	Sa growth 42C second temp
4	107	103
6	/	/

# Next section
No.	Structure	HCMV UL50-53 inh	GIV Gai3 FP
16	CCOc1ccc(Nc2c(S(=O)(=O)c3ccc(C)cc3)cnc3ccc(OC)cc23)cc1	-17	104
17	O=C(CSc1nc2[nH]c(=O)cc(O)c2s1)Nc1ccccc1	-27	106
18	CC(C)(C)C(=O)OC[C@H]1O[C@@H](n2cnc3c(=O)[nH]cnc32)C[C@@H]1O	-26	104
19	Cc1ccc(Nc2nc(N)nc(COC(=O)C3=COCCO3)n2)cc1	-32	/
20	c1nc(NCCCN2CCOCC2)c2sccc2n1	-15	98
21	COc1ccc(NS(=O)(=O)c2ccc3[nH]c4c(c3c2)CCCCCC4)cc1	/	107
22	COc1ccc(OC)c2sc(N3CCN(C(=O)CCS(=O)(=O)c4ccc(F)cc4)CC3)nc12	/	98
23	CCn1c(=N)n(CCOc2ccc(Cl)cc2)c2ccccc21	-24	103
24	Cc1ccc(S(=O)(=O)NC(=O)NN2CC3CCCC3C2)cc1 (stereo unspecified)	-38&15&4	104
25	O=C(c1cc2ccccc2oc1=O)N1CCCc2ccccc21	-28	96
26	CC(C)N(Cc1ccc(C(=O)O)o1)C(C)C	-1	104
27	O=C(Cc1nc2ccccc2[nH]1)c1ccccc1	19	/
28	Cc1ccc(S(=O)(=O)c2cc3ccc(O)cc3oc2=O)cc1C	-16	104
29	CCC1CCCCN1C(=O)COc1cc(C(F)(F)F)c2c(C)nn(C)c2n1 (stereo unspecified)	-6	112
30	Cc1ccccc1-c1nnc(CN2CCC(C)CC2)o1	-28	101

No.	Sa growth 42C	Sa growth 42C second temp
16	109	95
17	106	91
18	100	98
19	80	85
20	74	84
21	104	70
22	90	65
23	87	45
24	89	83
25	110	102
26	98	95
27	103	67
28	109	96
29	/	/
30	84	82

# The results go on:
No.	Structure	HCMV UL50-53 inh	GIV Gai3 FP
31	CC(C)NC(=O)CCCCn1c(=O)c2ccccc2n(CC(=O)Nc2ccc(F)cc2)c1=O	-14	105
32	CCc1ccc(NC(=O)C2CCN(C(=O)c3ccccc3C)CC2)cc1	/	103
33	Cc1cc2c(cc1C)-n1c(-c3ccccc3)c3c(=O)n(C)c(=O)n(C)c3c1C(c1ccco1)N2 (stereo unspecified)	-4	102
34	COc1ccccc1-c1cc(C(=O)Nc2ccccc2C(F)(F)F)no1	-4	102
35	CC1CCN(C(=O)CS(=O)(=O)Cc2ccccc2)CC1	3	103
36	CN(CCNC(=O)c1ccc(NC(=O)N2CCCCc3ccccc32)cc1)C1CCCCC1	7	104
37	CCc1cccc(-n2nnc(-c3nsc(NC(=O)c4cccs4)n3)c2C)c1	/	104
38	Cc1ccc(C)c(N2CCN(C(=O)NC3CCCCC3)CC2)c1	-7	106
39	CC1=NN(C(=O)c2cccc([N+](=O)[O-])c2)C(O)(c2ccc(Br)cc2)C1 (stereo unspecified)	-30	101
40	Cc1c(NS(=O)(=O)c2ccc(N3CCCC3=O)cc2)c(-n2cnnc2)nn1C	-16	102
41	O=C(N(Cc1ccccc1)c1ccccn1)C12CC3CC(CC(C3)C1)C2	-11	/
42	CCN1CCCC1CNC(=O)Nc1ccc2c(c1)N(C)C(=O)c1ccccc1S2 (stereo unspecified)	-7	106
43	c1ccc(CCCNc2ncccn2)cc1	4	102
44	Cc1ccc(-c2onc(C)c2C)cc1S(=O)(=O)N1CCC(C)CC1	/	98
45	O=C(c1cc(-c2ccccc2)n[nH]1)N1CCOCC1	-19	97

No.	Sa growth 42C	Sa growth 42C second temp
31	/	/
32	104	77
33	108	97
34	96	87
35	102	92
36	/	/
37	101	77
38	129	98
39	/	/
40	/	/
41	93	91
42	109	72
43	95	89
44	60	76
45	/	/

# The listing continues:
No.	Structure	HCMV UL50-53 inh	GIV Gai3 FP
46	CCN(CC)S(=O)(=O)c1nnc(NC(=O)COc2ccccc2F)s1	6	103
47	COc1ccc(N2CCN(C3=NS(=O)(=O)C(c4cccc(Br)c4)=C3C)CC2)cc1	-7	99
48	COc1cc(CNc2ccc3[nH]c(=O)[nH]c3c2)ccc1OCc1ccc(F)cc1Cl	-17	105
49	CCOC(=O)C1=C(C)NC(C(=O)NCCCN2CC(C)CC(C)C2)CS1 (stereo unspecified)	/	111
50	Cc1cnc(C(=O)OCC(=O)NCC2CCCCC2)cn1	-18	/
51	Cn1cc(-c2cc3n(n2)CCC(=O)N3CCCC(=O)NCc2ccccc2)c2ccccc21	/	105
52	COc1ccc(NC(=O)N2CCN(S(=O)(=O)c3cc4c(cc3Cl)NC(=O)C(C)O4)CC2)cc1 (stereo unspecified)	-7	104
53	COC(=O)c1cc(S(=O)(=O)NCC2CCN(Cc3ccc(C)cc3)CC2)c[nH]1	/	109
54	C=CCn1c(COc2ccccc2OC)nc2ccccc21	/	101
55	O=S(=O)(c1ccc(I)cc1)N1CCCCCC1	-24	101
56	C=CCN(S(=O)(=O)c1ccc(Cl)cc1)S(=O)(=O)c1ccccc1OC	-6	/
57	O=C(NCCCN1CCOCC1)c1nn2c(C(F)(F)F)cc(-c3ccccc3)nc2c1Br	-43	94
58	Cc1c(Cc2ccccc2)c(=O)oc2cc3oc4c(c3cc12)CCCC4	/	109
59	COc1ccc(-n2cnc3nc(C)c(C(=O)/C=C/N(C)C)c(-c4ccccc4)c32)cc1	/	99
60	COc1ccc(-c2nnc(SCC(=O)N(C)C)n2C2CCCCC2C)cc1 (stereo unspecified)	-31	/

No.	Sa growth 42C	Sa growth 42C second temp
46	92	105
47	119	83
48	100	96
49	94	86
50	95	88
51	93	80
52	/	/
53	108	103
54	107	88
55	92	81
56	97	85
57	/	/
58	70	98
59	96	77
60	99	94

# Next part
No.	Structure	HCMV UL50-53 inh	GIV Gai3 FP
61	COC(=O)c1ccsc1NC(=O)Cn1c2ncccc2c(=O)n1-c1ccccc1	4	110
62	CC1CCN(c2ccc(C(F)(F)F)cn2)CC1	0	/
63	O=C1CCC(=O)N1c1ccc(-c2nc3sc4c(c3c(=O)o2)CCC4)cc1	-20	105
64	Cc1c(OCC(F)(F)F)ccnc1CS(=O)c1nc2ccccc2[nH]1 (stereo unspecified)	-41&-7&-20&-87&-26&-81&-22	99
65	COc1cc2ncnc(NC(C)C)c2cc1OC	0	102
66	Cc1ccc(NC(=O)CCc2c(C)nc3c(-c4ccccc4)c(C)nn3c2C)c(C)c1	-40	102
67	c1ccc2oc(CCc3nc4ccccc4o3)nc2c1	-3	104
68	NC(=O)CSCc1cc(Cl)c2c(c1)OCCCO2	9	/
69	COc1ccc(-n2nc(N3CCC(C(=O)NCc4ccccc4)CC3)ccc2=O)cc1	-84	103
70	O=C(Nc1sc2c(c1C(=O)NCC1CCCO1)CCC2)c1cc(=O)c2ccccc2o1 (stereo unspecified)	-28&-33	99&99
71	O=C(c1ccc(N2CCN(c3ncccn3)CC2)nn1)N1CCc2ccccc21	-28	103
72	Cc1cc(C(F)F)n2nc(C(=O)Nc3c(C)cccc3C)nc2n1	-31	98
73	Cc1cccc(C)c1OCc1nc2c3cnn(C)c3ncn2n1	/	105
74	CC(C)C(=O)Nc1cc(S(C)(=O)=O)ccc1Cl	-8	/
75	O=C(NC1CCCCC1)N1CCc2cc(S(=O)(=O)N3CCCCC3)ccc21	21	102
76	N#Cc1cnc(Sc2nnc(-c3cccs3)n2-c2ccc(Cl)cc2)nc1N	-23	104
77	CCC(O)C#CCN1CCN(C)CC1 (stereo unspecified)	-10	/

No.	Sa growth 42C	Sa growth 42C second temp
61	/	/
62	104	94
63	/	/
64	97&102	82&92
65	115	91
66	94	92
67	102	82
68	103	93
69	/	/
70	99	84
71	/	/
72	91	88
73	116	84
74	103	112
75	/	/
76	92	88
77	96	91

# Record cards, from the list above. Order of screens: HCMV UL50-53 inh | GIV Gai3 FP | Sa growth 42C | Sa growth 42C second temp
# Results for O=C1CCC(=O)N1c1ccc(-c2nc3sc4c(c3c(=O)o2)CCC4)cc1 = -20 | 105 | / | /
# Results for c1ccc2oc(CCc3nc4ccccc4o3)nc2c1 = -3 | 104 | 102 | 82
# Results for Cc1cc(C(F)F)n2nc(C(=O)Nc3c(C)cccc3C)nc2n1 = -31 | 98 | 91 | 88
# Results for CC(C)C(=O)Nc1cc(S(C)(=O)=O)ccc1Cl = -8 | / | 103 | 112
# Results for CCC(O)C#CCN1CCN(C)CC1 (stereo unspecified) = -10 | / | 96 | 91

# 3 structures out of the list, arranged by molecular weight, descending.
No.	Structure	HCMV UL50-53 inh	GIV Gai3 FP
67	c1ccc2oc(CCc3nc4ccccc4o3)nc2c1	-3	104
62	CC1CCN(c2ccc(C(F)(F)F)cn2)CC1	0	/
77	CCC(O)C#CCN1CCN(C)CC1 (stereo unspecified)	-10	/

No.	Sa growth 42C	Sa growth 42C second temp
67	102	82
62	104	94
77	96	91
